Cruzain noTriton: cruzain (T. cruzi) inhibition without detergent; 200,000 tested, 2.3% active; Potency, µM, for inactives: max response, negative = inhibition, usual class: inhibitors; purified cruzain, Z-FR-AMC fluorescence, no detergent; P25779; active = well fitted curve in the direction sought with a large enough effect; inconclusive = small, poorly fitted or top-dose-only effect, or another doubt; inactive = no such curve, though single readings can be large; an effect the other way counts as inactive or inconclusive;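 also: plate controls were enzyme without inhibitor for no effect and buffer without enzyme for full effect; nearly all actives have a fitted effect of over 40% in size; top concentration of the series not given in the record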
Target sequence (P25779 123-467 limits assumed): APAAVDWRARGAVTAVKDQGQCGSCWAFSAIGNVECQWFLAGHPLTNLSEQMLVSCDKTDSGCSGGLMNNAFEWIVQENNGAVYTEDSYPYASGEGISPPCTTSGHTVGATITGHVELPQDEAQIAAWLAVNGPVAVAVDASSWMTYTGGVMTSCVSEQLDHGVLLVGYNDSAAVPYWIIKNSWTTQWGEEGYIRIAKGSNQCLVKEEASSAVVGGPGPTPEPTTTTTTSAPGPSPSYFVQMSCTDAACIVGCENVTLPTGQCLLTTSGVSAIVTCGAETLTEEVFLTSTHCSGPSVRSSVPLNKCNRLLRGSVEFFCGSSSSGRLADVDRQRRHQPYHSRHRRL
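Detergent-free condition (0.00005% Triton X-100) in acetate buffer pH 5.5 with DTT. 1.5 nM enzyme and compound were pre-mixed 15 min, then 2 uM Z-FR-AMC substrate added; reaction progress from fluorescence change between first and third reads (60 s).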
RE007 growth inh: less growth of the S. pombe RE007 Vpr strain | 360,000 tested, 0.21% active | Potency, µM (top dose mostly 92.2 µM), for the others: at the highest dose activity change, negative = less growth | S. pombe RE007 Vpr strain, BacTiter-Glo ATP luminescence, 24 h; control for the full effect not named in the record; active = well fitted falling curve with a large enough effect; inconclusive = small, poorly fitted or top-dose-only effect; inactive = no such curve, though single readings can be large or run the other way;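 also: % is scaled to controls: 0 for no effect and ±100 for the full control effect; nearly all actives have a fitted effect of over 50% in size; the assay follows cell death caused by Vpr and the record does not say whether a fall means rescue or toxicity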
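Fission yeast RE007 carrying one integrated HIV-1 vpr copy, seeded at OD 0.01 in PMG+AL medium with 23 nL pinned compound. Grown 24 h at 30 degrees; viability read by BacTiter-Glo luminescence after 5 min.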
LASV entry inh: inhibitors of Lassa virus binding or cell entry; Lassa virus pseudotype entry inhibition, cell reporter; control for the full effect not named in the record; Potency, µM (titrated, usually from 37.9 µM), without a hit: at the highest dose activity change, negative = inhibition, most hits filed as inhibitors; 300,000 tested, 1.2% active; AID 540256; active means well fitted inhibition curve with a large enough effect; inconclusive means small, poorly fitted or top-dose-only effect, or effect the other way; inactive means flat fitted curve, though single readings scatter; tested in HEK293 cells; also: % is scaled to controls: 0 for no effect and ±100 for the full control effect; nearly all actives have a fitted effect of over 50% in size; luciferase read-out
2A StopGo: FMDV 2A StopGo reporter, luciferase signal. human cells with a luciferase reporter of 2A StopGo recoding; control for the full effect not named in the record. 410,000 tested, 1.2% active. Potency, µM (doses to about 57.9 µM), inactives show top-dose signal change, negative = less light; active = well fitted falling curve with a large enough effect; inconclusive = small, poorly fitted or top-dose-only effect; inactive = no such curve, though single readings can be large or run the other way; tested in HEK293T cells; also: % is scaled to controls: 0 for no effect and ±100 for the full control effect; nearly all actives have a fitted effect of over 45% in size; luciferase light after 4 h
NS1 function inh: blocks influenza NS1 protein function; 270,000 tested, 0.4% active; S. cerevisiae slowed by influenza A NS1, growth recovery by OD600; AID 2326; Potency, µM (titrated, usually from 46.1 µM), without a hit: at the top dose activity, positive = more growth; also: actives are rising curves; nearly all actives have a fitted effect of over 50% in size
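Growth recovery, yeast-based: influenza A NS1 expressed in S. cerevisiae causes slow growth, and suppressors are detected by OD600. The parent strain without NS1 is used as positive control.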
MARV entry inh: blocks Marburg virus binding to or entry into cells; Marburg virus pseudotyped entry inhibition, cell reporter; control for the full effect not named in the record; about a third of the inactives were read at about 46 µM; Potency, µM (titrated, usually from 37.8 µM), for the others: at the top dose activity change, negative = inhibition, most hits filed as inhibitors; 300,000 tested, 1.8% active; AID 540276; active = well fitted inhibition curve with a large enough effect; inconclusive = small, poorly fitted or top-dose-only effect, or effect the other way; inactive = flat fitted curve, though single readings scatter; tested in HEK293 cells; about a fifth of its hits are not listed in these tables; also: % is scaled to controls: 0 for no effect and ±100 for the full control effect; luciferase read-out
Cruzain Triton: inhibitors of Trypanosoma cruzi cruzain with detergent; AID 1478; purified cruzain, Z-FR-AMC fluorescence, 0.01% Triton; P25779; 200,000 tested, 0.43% active; Potency, µM, inactives show max response, negative = inhibition, hits mostly inhibitors; active = well fitted curve in the direction sought with a large enough effect; inconclusive = small, poorly fitted or top-dose-only effect, or another doubt; inactive = no such curve, though single readings can be large; an effect the other way counts as inactive or inconclusive;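 also: plate controls were neutral wells for no effect and buffer without enzyme for full effect; nearly all actives have a fitted effect of over 40% in size; top concentration of the series not given in the record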
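Read-out: AMC fluorescence (360 nm excitation, 450 nm emission), four reads over 2 min, first-to-third difference used. Conditions: cruzain 1.5 nM, Z-FR-AMC 2 uM, pH 5.5 acetate, 5 mM DTT, 0.01% Triton X-100.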
SARS PLP yeast: inhibitors of SARS-CoV papain-like protease in yeast | S. cerevisiae expressing SARS-CoV PLpro, growth rescue; control for the full effect not named in the record | Potency, µM (highest dose often 32.9 µM), without a hit: at the highest dose activity, positive = growth rescue | 330,000 tested, 0.19% active | AID 485353; also: 0% is about no effect; nearly all actives have a fitted effect of over 55% in size; growth read by luminescence after 48 h
An asterisk follows results filed as active; ? = inconclusive; / = no result given; & = joins results of further samples; [ ] = remark or other dose. Unless noted, calls follow the shape of the dose curve; as a rule, active means well fitted rising curve with a large enough effect; inconclusive means small, poorly fitted or top-dose-only effect; inactive means no such curve, though single readings can be large or run the other way. Potency is read from the fitted curve at half-maximal effect.

SMILES | Cruzain noTriton | RE007 growth inh | LASV entry inh | 2A StopGo | NS1 function inh | MARV entry inh | Cruzain Triton | SARS PLP yeast
CCOC(=O)c1cc(COc2cc(Cl)cc(Cl)c2)on1 | / | -24.1% | ? | -7.1% | -8.2% | 0.4% | / | -0.7%
CC1CCN(C(=O)CSc2nnc(-c3ccncc3)n2C)CC1 | 2.5% | 14.7% | -0.3% | -16.0% | 21.0% | 29.7% | 2.8% | 22.2%
C/C(N)=C(/C#N)C(=O)CSc1nnc(Cc2ccccc2F)n1N | -12.1% | 7.4%&0.7% | 4.0%&-2.6% | -12.6%&19.7% | 1.4% | 8.2% | -1.1% | 0.6%
CN(Cc1ccc(Cl)cc1Cl)C(=O)CN1C(=O)NC2(CCCC2)C1=O | / | 5.6% | -8.8%[46.1 µM] | -4.6% | / | ? | / | 4.1%
CCc1ccc(OCC(=O)NNC(=O)c2c(CC)noc2C)cc1 | / | 11.8% | 21.7% | -15.9% | / | ? | / | -2.6%
O=C1CC(NS(=O)(=O)c2cccnc2)CN1c1ccc(Cl)cc1 (stereo not given) | / | -16.7% | 1.6% | -12.5% | / | -5.6% | / | -0.2%
COc1ccc(C(=O)C2CCCN(Cc3cc(C)c(O)c(C)c3)C2)c(OC)c1 (stereo not given) | / | -18.7% | 0.9% | -24.3% | -12.6% | -50.9% | / | 11.3%
CN(C)CCNC(=O)CNC(=S)N(Cc1ccccc1)Cc1cccnc1 | -1.3% | -6.9% | 22.6% | 14.0% | 9.9% | 7.1% | -0.8% | 20.3%
CC1CCCCC1NC(=O)CCCCCn1c(=S)[nH]c2ccsc2c1=O (stereo not given) | / | 24.9% | / | -9.7% | 8.8% | / | / | 2.4%
O=S(=O)(c1cccc(-c2n[nH]c(=S)o2)c1)N1CCOCC1 | / | 26.8% | 18.0% | -2.0% | 8.4% | 21.9%[46.1 µM] | / | 0.5%
Cc1nc2ccc(NC(=O)c3ccc(F)c(S(=O)(=O)N4CCOCC4)c3)cc2s1 | 13.0% | 9.6% | -11.4% | ? | -3.6% | 8.8% | -6.8% | 18.7%
C/C(=N/Nc1nc(C)c(C)s1)c1cccc([N+](=O)[O-])c1 | / | 0.7% | / | 47.3%[activator] | 9.7% | / | / | 21.8%
O=C1CCN(CCc2ccccc2)CCN1[C@H](CSc1ccccc1)Cc1ccccc1 | / | -5.9% | / | -16.4% | -46.9% | / | / | -9.7%
CN(C)CCCNCC(=O)c1c(-c2ccccc2)n(C)c2ccccc12 | / | -6.2% | -25.3%[46.1 µM] | -10.9% | -3.4% | ? | / | -6.3%
COc1cc(SC)ccc1C(=O)OC(C)C(=O)Nc1ccc(NC(C)=O)cc1 (stereo not given) | / | -1.2% | ? | 14.6% | -9.4% | 3.8%[46.1 µM] | / | -0.5%
Cc1cc[n+](-c2nc3ccccc3nc2C(=C=[N-])C#N)cc1 | -22.2% | -15.1% | 1.4% | -20.1% | 12.1% | ? | -6.8% | 1.6%
O=C(Nc1ccccc1)c1ccc(-c2ccccc2Cl)o1 | 1.9% | -4.9% | 6.3% | 41.7%[activator] | -19.7% | -10.6% | -6.9% | 8.6%
CCc1ccc(C(=O)N/N=C(\C)c2cccnc2)s1 | / | -3.5% | -17.0%[46.1 µM] | 40.7%[activator] | -8.0% | ? | / | -0.2%
Cc1cccc(N2CCN(C(=O)Cn3cccc3C(=O)c3ccccc3)CC2)c1C | 0.9% | 10.7% | -16.4% | ? | 6.7% | ? | -8.8% | -20.8%
COc1cccc(NC(=O)CSc2nnc(-c3ccc(C)cc3)o2)c1 | -7.5% | -2.4% | / | 11.9% | -4.3% | 1.3% | -2.0% | -4.0%
CCOc1ccc(OCC(=O)OCC(=O)NCC2CCCO2)cc1 (stereo not given) | / | -13.0% | -0.3% | -11.3% | / | ? | / | -0.1%
CCOC(=O)CC(=O)CSc1ccc2nnc(-c3ccc(F)cc3)n2n1 | -2.4% | -5.0% | 13.9% | -17.4% | 17.4% | 22.3% | -3.3% | 4.7%
CSc1ccccc1NC(=O)CN1CCN(c2ccccn2)CC1 | / | -8.6% | / | -8.0% | -9.6% | / | / | 1.2%
Cc1ccc(S(=O)(=O)CC(=O)c2ccc3c(c2)OCCO3)cc1 | / | 3.2% | 10.0%[46.1 µM] | 40.7%[activator] | -0.8% | 20.9%[46.1 µM] | / | 1.0%
CC1=C(C(=O)Nc2cc(C(=O)NCCCOC(C)C)ccc2C)SCCO1 | / | -18.7% | -5.3% | -2.8% | 0.3% | -6.5% | / | 1.6%

(further entries)
SMILES | Cruzain noTriton | RE007 growth inh | LASV entry inh | 2A StopGo | NS1 function inh | MARV entry inh | Cruzain Triton | SARS PLP yeast
CCN(CC)CCCn1c(C)cc2c(c1=O)C(c1ccc(OC)c(OC)c1OC)C(C#N)=C(N)O2 (stereo not given) | 2.8% | -13.7% | 4.9% | -16.4% | -6.4% | 8.9%&8.9% | -0.1% | 8.2%
O=C(O)c1ccc(Nc2c3ccccc3nc3ccccc23)cc1 | / | -15.4% | 22.5% | -22.8% | -92.9% | 2.7% | / | -11.0%
Cc1ccc(CCNS(=O)(=O)c2ccc3c(c2)C(C(C)C)C(=O)N3)cc1 (stereo not given) | 7.1% | / | -19.2%[46.1 µM] | -3.2% | / | / | -1.7% | /
Cn1c(=O)c2c(nc(N3CCN(Cc4ccccc4)CC3)n2CCCc2ccccc2)n(C)c1=O | ? | -11.6% | ? | ? | -40.0% | ? | 2.4% | 5.5%
CCOc1ccc(C(=O)Nc2cccc(NC(=O)c3ccc(Cl)cc3Cl)c2)cc1 | -20.0% | / | -20.9%[46.1 µM] | 5.9% | / | / | -2.4% | /
CCCC(=O)Nc1ccc(-c2csc(-c3cccnc3)n2)cc1 | / | 4.9% | 4.9% | 30.0% | -18.1% | -28.5% | / | -3.1%
CCOc1ccc(NC(=O)C2CCCN2S(=O)(=O)c2ccc(OCC)cc2)cc1 (stereo not given) | / | -16.5% | / | -3.7% | -9.7% | ? | / | -3.0%
O=C1Nc2ccccc2/C1=N\N=C\c1ccc(O)c(O)c1 | / | ? | ? | -12.6% | -1.3% | -3.0% | / | 0.6%
CCC1CCCCN1C(=O)CSc1nnc(-c2cccc(Cl)c2)o1 (stereo not given) | -7.3% | -7.8% | / | 0.0% | -33.8% | / | -0.8% | -5.0%
CCOC(=O)C1(Cc2ccc(OC)cc2)CCN(C(=O)CN2CCOC2=O)CC1 | / | 2.7% | -0.6%[46.1 µM] | 14.3% | -4.2% | 3.6%[46.1 µM] | / | -0.7%
Cc1ccc(S(=O)(=O)N2CCC[C@H]2C(=O)NC2=NCCS2)cc1 | / | -8.1% | -7.2% | -3.8% | / | / | / | /
COc1ccc(-c2cc(C(=O)N3CCN(S(=O)(=O)c4ccccc4)CC3)[nH]n2)cc1 | / | -20.3% | / | 0.0% | 10.3% | / | / | 4.6%
CC(C)c1nnc(NC(=O)CCC(=O)NCc2cccs2)s1 | -2.5% | 10.1% | 22.5% | 8.9% | 4.7% | ? | 0.1% | -0.6%
CCC(C)NS(=O)(=O)c1ccc(S(=O)(=O)N(CC(=O)Nc2ccccc2)Cc2ccco2)cc1 (stereo not given) | -5.4% | -7.5% | ? | ? | 6.7% | ? | -10.8% | 22.4%
CCOc1ccc(N2CC(NC(=O)c3cccc4ccccc34)CC2=O)cc1 (stereo not given) | / | 11.2% | 1.4% | -1.4% | / | 0.7%[46.1 µM] | / | -5.8%
Cc1cccc(OCCCCCn2ccnc2)c1C | 14.0% | -5.8% | ? | -15.9% | -148.2% | ? | 2.7% | -2.8%
CN=C1c2cc3cc(OC)ccc3n2CCN1Cc1ccccc1 | -7.1% | 0.3% | ? | -23.8% | 3.6% | 11.2µM* | -1.9% | 8.2%
CC(C)C(=O)Nc1ccc(C(=O)Nc2nnc(C(C)(C)C)s2)cc1 | / | 3.5% | 11.8%[46.1 µM] | -10.5% | 3.7% | -2.4%[46.1 µM] | / | 0.4%
FC(F)(F)c1cccc(CNc2ncccc2-c2nc3cc(Cl)ccc3o2)c1 | -3.8% | 12.9% | 3.5% | 16.4% | 11.1% | 1.7% | 5.3% | 15.8%
NS(=O)(=O)c1ccc(NC(=S)NC(=O)/C=C/c2ccco2)cc1 | 8.6% | -12.2% | 6.4% | -5.1% | 23.2% | 26.8% | -22.4% | -6.7%
Cc1ccccc1CN1[C@@H]2c3ccccc3C[C@@H]2OCCS1(=O)=O | / | 14.1% | / | -4.6% | -20.4% | / | / | 1.5%
CS(=O)(=O)N(CC(=O)NCc1ccncc1)c1ccc(Cl)c(Cl)c1 | -9.5% | -7.0% | -0.3% | -12.0% | 3.0% | 7.0% | 5.2% | 1.1%
CCc1ccc(NC(=O)CN2CCC(C(=O)c3ccc(OC)cc3)CC2)cc1 | / | -10.5% | 4.8%[46.1 µM] | -14.5% | -2.4% | ? | / | -4.0%
Cc1ccc(NC(=O)CN(C)C(=O)COC(=O)c2ccc(NC(=O)CC#N)cc2)cc1 | / | 6.5% | 4.7% | -17.0% | / | -12.9% | / | 28.6%
CCOC(=O)c1c(C)oc2nc(C)nc(NC(C)c3ccccc3)c12 (stereo not given) | -7.4% | / | -2.0%[46.1 µM] | -15.2% | / | / | -1.7% | /

Following part.
SMILES | Cruzain noTriton | RE007 growth inh | LASV entry inh | 2A StopGo | NS1 function inh | MARV entry inh | Cruzain Triton | SARS PLP yeast
NS(=O)(=O)c1cccc(NC(=O)Cn2cc(C(F)(F)F)cc(Cl)c2=O)c1 | / | -9.5% | 22.1%[46.1 µM] | -18.0% | -0.1% | -1.8%[46.1 µM] | / | -0.6%
CSc1cccc(NC(=S)NC(=O)c2cccnc2)c1 | / | 10.3% | / | 29.0% | 5.1% | / | / | 15.9%
Cc1ccc(C(=O)Nc2ccc3c(c2)OCCO3)cc1S(=O)(=O)N1CCOCC1 | / | 5.8% | ? | 1.3% | / | 6.9% | / | 2.9%
CC(=O)c1ccc(NC(=O)Nc2sc3nc4n(c(=O)c3c2C)CCC(C)CC4)cc1 (stereo not given) | ? | / | / | 11.0% | / | -24.5%[46.1 µM] | -1.0% | /
CCOC(=O)C1(C(=O)OCC)NC(=O)CC1C(C)C (stereo not given) | / | 14.3% | 23.8% | 6.3% | / | 0.1% | / | /
COC(=O)c1[nH]c2cc(C)ccc2c1NC(=O)CN1CCCc2ccccc21 | ? | -7.0% | -5.8% | -16.6% | 11.7% | ? | -6.1% | -10.0%
